Sfp PPTase inh: inhibitors of Bacillus subtilis Sfp phosphopantetheinyl transferase | Q9F4F7 | Biochemical Sfp PPTase activity, qHTS | Potency, µM, for the others: max response, negative = inhibition, usual class: inhibitors | hit rate 3.5% among 310,000 | AID 1490; active = well fitted inhibition curve with a large enough effect; inconclusive = small, poorly fitted or top-dose-only effect, or another doubt; inactive = no such curve, though single readings can be large or run the other way;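 also: the enzyme is Sfp with the accession as filed and its product quenches rhodamine fluorescence; potency is read from the fitted curve at half-maximal effect; 0% = enzyme reaction without inhibitor and -100% = no enzyme wells; top concentration of the series not given in the record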
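Fluorescence-quenching assay: 15 nM Sfp-PPTase preincubated 15 min at room temperature with compound, then 5 uM rhodamine-CoA and 12.5 uM BHQ-2-labelled YbbR peptide added. Fluorescence (ex 525/em 598 nm) read at start and after 30 min; difference gives rate.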
gsp ag: gsp mutant agonism; gsp mutant cells, cAMP HTRF, 30 min; control for the full effect not named in the record; Potency, µM (titrated, usually from 76.9 µM), for the others: at the highest dose activation (cAMP increase), usual class: activators; hit rate 0.13% among 340,000; active = well fitted activation curve with a large enough effect; inconclusive = small, poorly fitted or top-dose-only effect, or another doubt; inactive = no such curve, though single readings can be large or run the other way; cell line not stated here;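 also: phosphodiesterase inhibitor Ro 20-1724 added with compounds to block cAMP breakdown; potency is read from the fitted curve at half-maximal effect; nearly all actives have a fitted effect of over 60% in size; about a fifth of the inactives were tested at one dose only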
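Cells stably selected in G418 were plated at 2000/well, grown 16-24 hr, then given compounds in DMSO with the PDE inhibitor […] (300 uM solution added) for 30 min at 37C; cAMP was read by HTRF.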
PINK1 modulator: changes PINK1 expression. Potency, µM (highest dose often 76.6 µM), for inactives: top-dose activation (PINK1 increase), usual class: activators. hit rate 0.2% among 410,000. AID 624263. PINK1 immunofluorescence, high-content cytometry, 24 h; active = well fitted activation curve with a large enough effect; inconclusive = small, poorly fitted or top-dose-only effect; inactive = flat fitted curve, though single readings scatter; cell line not stated here;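 also: potency is read from the fitted curve at half-maximal effect; % of control where 0% means no effect; nearly all actives have a fitted effect of over 65% in size; a mitochondrial uncoupler was the plate control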
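Decision-based qHTS: stable cells, 24 h exposure to five compound concentrations, CCCP as control. Fixed cells stained for PINK1 plus nuclear, mitochondrial and cell markers, cytometer read.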
gsp antag: antagonists of gsp mutant (McCune-Albright syndrome). gsp-mutant cells, cAMP HTRF, 30 min; control for the full effect not named in the record. Potency, µM (titrated, usually from 76.9 µM), without a hit: top-dose activity change, negative = inhibition, most hits filed as inhibitors. hit rate 0.4% among 340,000; active = falling curve of any shape with a large fitted effect; inconclusive = falling curve, mostly with a smaller effect; inactive = flat or rising curve; cell line not stated here;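 also: intracellular cAMP measured with PDE inhibitor Ro 20-1724 present during compound exposure; potency is read from the fitted curve at half-maximal effect; % is scaled to controls: 0 for no effect and ±100 for the full control effect; nearly all actives have a fitted effect of over 65% in size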
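Cells in G418 medium, seeded 16-24 h, 37C; buffer exchange to DPBS + 1 mM CaCl2, 0.5 mM MgCl2, 0.05% BSA; cpds in DMSO + […] (300 uM stock), 30 min 37C; HTRF cAMP detection.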
Menin MLL FP FL: menin-MLL binding inhibition, fluorescein peptide; Fluorescence polarization, fluorescein-MLL peptide displacement from menin; FP activity change, % at 61.4 µM; 290,000 tested, under 10 active; AID 1766; inconclusive = falling polarisation curve, or a change in total fluorescence; inactive = total fluorescence flat and polarisation flat or rising; no compound was filed as active; the % refers to the polarisation; negative = inhibition;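 also: % of control where 0% means no effect; inhibitors lower the polarisation; unlabelled MLL peptide was the positive control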
D2 agonist: human D2 receptor agonism in beta-arrestin assay. P14416. DiscoveRx PathHunter D2 beta-arrestin, luminescence, 90 min; 100% = 57 uM dopamine signal. activation, % (concentration not given with the values). hit rate 0.084% among 360,000; in the data active = activation above about 40%; inconclusive = about 15% to 40%; inactive = below about 15%; also: compound concentration not given in the record; the text of the record calls up to 30% inactive
Target sequence (P14416 whole entry, looked up): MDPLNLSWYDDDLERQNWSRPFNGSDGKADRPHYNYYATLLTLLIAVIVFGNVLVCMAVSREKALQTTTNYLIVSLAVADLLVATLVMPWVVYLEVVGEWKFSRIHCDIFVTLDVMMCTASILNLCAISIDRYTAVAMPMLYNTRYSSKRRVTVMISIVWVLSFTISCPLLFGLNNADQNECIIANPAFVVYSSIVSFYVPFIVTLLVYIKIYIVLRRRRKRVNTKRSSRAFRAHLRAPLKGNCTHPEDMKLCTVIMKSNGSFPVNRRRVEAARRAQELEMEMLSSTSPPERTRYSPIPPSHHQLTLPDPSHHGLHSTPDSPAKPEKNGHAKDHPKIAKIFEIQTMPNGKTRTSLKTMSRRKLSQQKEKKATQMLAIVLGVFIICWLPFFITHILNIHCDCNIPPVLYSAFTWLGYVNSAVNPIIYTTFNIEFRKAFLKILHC
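Agonist mode: compounds alone added to overnight-plated D2 PathHunter cells for 90 min at 37 C, with 57 uM final dopamine (EC100) defining full response. Beta-arrestin recruitment detected by chemiluminescent reagent, read after 1 h at ambient temperature.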
ClpP mod: qHTS Assay for Activators of ClpP; purified B. subtilis ClpP, FRET peptide cleavage, 20 min; AID 651965, 2013; Potency, µM (highest dose often 57.5 µM), for inactives: at the highest dose activity change, negative = active; ATP-dependent Clp protease proteolytic subunit (Bacillus subtilis (strain 168)), P80244; hit rate 1.9% among 340,000; active = well fitted falling curve with a large enough effect; inconclusive = small, poorly fitted or top-dose-only effect; inactive = no such curve, though single readings can be large or run the other way; also: potency is read from the fitted curve at half-maximal effect; the source files actives as falling curves though it sought activators and does not explain the sign; nearly all actives have a fitted effect of over 65% in size; many hits overshoot -100%
Target sequence (P80244 whole entry, looked up): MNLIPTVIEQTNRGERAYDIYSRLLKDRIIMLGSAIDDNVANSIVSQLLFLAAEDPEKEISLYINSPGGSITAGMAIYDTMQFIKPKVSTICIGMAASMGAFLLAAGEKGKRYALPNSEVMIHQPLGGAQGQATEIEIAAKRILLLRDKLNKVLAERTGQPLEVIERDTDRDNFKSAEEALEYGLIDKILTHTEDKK
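FRET quenching reversal measured ClpP activation: 10 microg/mL B. subtilis ClpP at pH 8 with the FRET-FV decapeptide, read at 430 nm after 320 nm excitation. The 20-min minus 0-min signal was scaled between DMSO/no-enzyme wells and ADEP (5.8 microM final).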
Active calls of the source: *; u = inconclusive; x = no result given; & = joins results of further samples; [ ] = another dose, or the depositor's remark.

Every second line gives: ClpP mod	D2 agonist	Sfp PPTase inh	gsp antag	PINK1 modulator	Menin MLL FP FL	gsp ag
CCC/C(O)=C1\C(=O)CCCC1=NCCCCCC(=O)O
    -1.0%	2.9	11%	-10%	1.0%	4.9	36%
Cc1ccccc1Cc1c(C)nc2ncnn2c1C
    -0.8%	1.9	24%	-4%	1.6%	5.6	-9%
Cc1ccc(-n2c(C)nn(CC#N)c2=O)cc1
    x	2.1	13%	14%	-0.7%	4.7	4%[15.4 µM]
Cc1cc(C)nc(N2CCCC(CCC(=O)NCc3ccc(F)c(F)c3)C2)n1 (configuration not stated)
    x	1.7	-3%	-3%	1.9%	6.7	4%[15.4 µM]
O=C(Nc1ccc(S(=O)(=O)N2CCOCC2)cc1)c1cccc(Br)c1
    0.6%	-1.5	2%	-4%	-1.8%	-0.7	34%[15.4 µM]
CN(Cc1ccccc1)c1ccc([N+](=O)[O-])cc1C(=O)O
    x	-3.3	16%	3%	-1.1%	0.6	11%[15.4 µM]
Cc1cc(NC(=O)CSc2nc3c(cc2C#N)CCCCC3)no1
    x	0.0	15%	4%	9.3%	-0.6	-7%
CN(CCO)CCC(=O)NC1(C)CS(=O)(=O)CC1S(=O)(=O)O (configuration not stated)
    3.0%	-3.5	-1%	6%	0.5%	-2.1	u
O=C(Oc1ccc2c3c(c(=O)oc2c1)CCCC3)c1ccco1
    345%	-1.4	-9%	11%	-2.6%	2.6	-13%
FC(F)Oc1ccc(NC(=S)NCc2ccccc2)cc1Cl
    1.1%	0.7	-6%	u	12%[38.3 µM]	1.2	-1%
C[C@@H]1CN([C@@H](C)CO)C(=O)CCCn2nncc2CO[C@@H]1CN(C)S(=O)(=O)c1cccc(F)c1
    1.8%	-6.6	x	x	1.2%	x	2%
COc1ccc(S(=O)(=O)N2CCCC2)cc1C(C)C
    x	-5.4	18%	-10%	5.0%	0.5	15%[15.4 µM]
Cc1ccccc1NC(=O)CSc1nc(N)c2c3c(sc2n1)CSC(C)(C)C3
    -9.2%	3.1	-4%	-25%	12%	2.2	0%
O=C(CSc1cccc2cccnc12)OCC(=O)c1ccccc1
    25µM*	-2.0	9%	-19%	-2.3%	3.3	13%
COc1ccc(CN2C(=O)C(CC(=O)NCc3cccc4ccccc34)CC(C(=O)N(C)C)=C2C)cc1 (configuration not stated)
    2.1%	0.3	x	x	-0.1%	x	-24%
CCc1nnc(SCC(=O)NCCC2=CCCCC2)nc1CC
    -2.2%	-2.0	8%	-8%	-1.1%	0.7	25%
CC1CCCN(C(=O)CN(C)S(=O)(=O)c2ccc3c(c2)c(=O)n(C)c(=O)n3C)C1 (configuration not stated)
    -22%	1.5	7%	1%	-0.6%	x	28%
O=[N+]([O-])c1cc(S(=O)(=O)C(F)(F)F)ccc1Sc1nc2ccccc2s1
    -0.2%	3.9	-9%	-2%	2.1%	-1.6	15%
CCCNC(=O)c1ccc2c(=O)c(O)c(-c3ccsc3)[nH]c2c1
    -9.7%	1.2	14%	9%	-1.0%	7.9	x
COc1c(-c2ccc([N+](=O)[O-])cc2[N+](=O)[O-])c(=O)n(C)c(=O)n1C
    1.8%	-11	10%	4%	-2.4%	-12	u
O=C(CSc1ccc2nnc(-c3cccnc3)n2n1)NCc1ccc2c(c1)OCO2
    -0.7%	0.1	u	3%	2.0%	0.1	22%
COc1cc(CN2CCN(C(O)(c3ccccc3)c3ccccc3)CC2)cc(OC)c1OC
    x	-6.9	-6%	7%	1.3%	1.5	u
COc1cc(NS(=O)(=O)c2ccc(NC(C)=O)cc2)nc(OC)n1
    -0.5%	-3.4	10%	2%	2.6%[38.3 µM]	0.3	0%
N#CCCN1CCn2c1nc1ccccc12
    -0.4%	-1.5	19%	13%	-0.4%	0.9	-10%
C=C(C)CC1Nc2ccccc2NC1CC(=C)C (configuration not stated)
    -8.0%	-2.2	u	-22%	1.9%	u	13%
Cc1cccc(Nc2ccc(C(=O)N3CCOCC3)cn2)c1
    x	5.5	-2%	1%	0.2%	2.4	1%
Cc1nnc(NC(=O)CSc2nnc(Cc3cccn3C)n2-c2cccc(C(F)(F)F)c2)s1
    1.4%	-4.7	-1%	-7%	1.8%	4.2	-16%
COC(=O)c1ccc(NC(=O)CCc2c(C)nc3ncnn3c2C)cc1
    -1.6%	-1.4	28%	3%	-1.9%	-0.5	0%
Cc1cnn(CCC(=O)NNC(=S)Nc2cccc(Cl)c2)c1
    0.0%	-12	19%	6%	-0.5%[38.3 µM]	-0.5	-56%[inhibitor]
Cc1ccc(S(=O)(=O)NCCC(=O)N(C)Cc2cccs2)cc1
    -1.3%	3.9	x	11%	0.9%	x	2%
O=C(Nc1ccccc1)Nc1cnccn1
    -14%	-1.8	10%	5%	0.3%	-0.5	-8%
CCc1cc(C(c2cccc(OC)c2)N2CCOCC2)c(NC(=O)c2ccccc2)s1 (configuration not stated)
    u	-5.1	5%	-5%	-0.3%	3.2	13%
Cn1cccc1C(=O)OCC(=O)NCCCc1ccccc1
    -3.6%	-2.2	x	10%	0.3%	x	-7%[15.4 µM]
COc1ccc(Cl)cc1NC(=O)CNCC(c1ccccc1)N(C)C (configuration not stated)
    x	-5.9	-25%	0%	-0.3%	0.4	1%[15.4 µM]
N#CC1=C2SCN(c3ccccc3)CN2C(=O)CC1c1ccccc1Cl (configuration not stated)
    -21%&0.0%	-1.8	1µM*	-4%	0.0%&0.3%	7.3	-10%
CC(C)OC(=O)c1cc2ccccc2[nH]1
    u	1.9	-10%	-9%	6.1%[38.3 µM]	2.7	-24%
CN(Cc1ccco1)c1ncncc1-c1ccccc1C(F)(F)F
    x	x	-22%	x	0.2%	-6.0	x
Cc1ccc(NS(=O)(=O)c2ccc3c(c2)oc(=O)n3C)cc1C
    -3.3%	-1.6	3%	3%	0.8%	0.6	21%[15.4 µM]
Cc1ccc(S(=O)(=O)Nc2cccc(C(=O)NCC(c3ccc(F)cc3)N3CCOCC3)c2)cc1 (configuration not stated)
    0.9%	1.9	x	-25%	4.2%	x	-38%[inhibitor]
N#Cc1ccccc1S(=O)(=O)N1CCN(C(=O)c2cc(=O)[nH]c3ccccc23)CC1
    -25%	-8.2	x	15%	3.3%	x	u
O=C(OCC(=O)N1CCc2ccccc21)c1n[nH]c(=O)c2ccccc12
    2.7%	2.4	x	13%	3.5%	x	-16%
Cn1c(=O)cc(OCC(=O)N2CCN(c3ccccc3F)CC2)c2ccccc21
    -5.1%&-11%	1.4	11%	-16%	1.0%&2.0%	2.8	23%
CN1C(=O)/C(=C\c2ccncc2)SC1=Nc1ccccc1
    -1.4%	-3.7	-20%	7%	0.1%	-1.9	6%[15.4 µM]
Cc1ccccc1NC(=O)CN1C(=O)COc2ccc(S(=O)(=O)N3CCCC3)cc21
    0.4%	-3.3	14%	11%	0.7%	-0.7	5%
Cc1ccc(NC(=O)CSCCc2ccccn2)nc1
    -2.3%	1.5	-7%	-5%	-1.6%	36[activator]	15%
COCCNc1nnc(SC(C)C(=O)Nc2c(C)n(C)n(-c3ccccc3)c2=O)s1 (configuration not stated)
    1.2%	-0.6	10%	9%	-1.3%	x	-23%
Cc1ccc(C(=O)NC(=S)Nc2ccc(NC(=O)c3cccs3)cc2)cc1[N+](=O)[O-]
    -5.7%	1.0	-2%	7%	-2.0%	3.9	-3%
O=C(COC(=O)c1cc[n+]([O-])cc1)Nc1ccccc1Cl
    x	1.8	14%	x	-0.3%	-0.5	-9%[15.4 µM]
COc1cccc(C(NC(C)=O)c2nc(-c3cnc4ccccc4c3)cs2)c1 (configuration not stated)
    -20%	6.1	x	x	0.5%	x	x
COc1ccccc1-c1ccc2c(c1)C(C)(Cc1cccc(F)c1)C(=O)N2 (configuration not stated)
    -1.0%	9.5	x	x	10%	x	x
Cc1ccc(-n2c(SCC(=O)O)nc3c(sc(=S)n3-c3ccc(C)c(C)c3)c2=O)cc1
    0.3%	0.8	4%	-19%	0.2%	-1.7	29%
CC(=O)c1cccc(Nc2cc(C)nc3ccccc23)c1
    -2.0%	-12	-10%	1%	0.6%	-1.7	-1%
CC(C)C(NC(=O)OCc1ccccc1)C(=O)NC(Cc1ccc(O)cc1)C(=O)O (configuration not stated)
    0.7%	-3.4	8%	-1%	-0.6%	4.7	0%[15.4 µM]
C=CCNC(=O)/C(=C\C=C\c1ccccc1)NC(=O)c1ccc(OCCCC)cc1
    -14%	-0.9	-8%	1%	-1.2%	1.8	6%
CC(C)CNC(=O)CC(c1ccccc1)c1c(O)ccc2ccccc12 (configuration not stated)
    -29%	-0.8	18%	3%	0.0%	-1.3	16%
Clc1ccc(CSc2nnc(-c3ccccn3)n2Cc2ccco2)c(Cl)c1
    -1.1%	-5.5	50µM*	-19%	-2.0%[38.3 µM]	2.2	10%
Cc1ccc(S(=O)(=O)N(C)c2ccccc2)cc1
    0.4%	-4.1	19%	-3%	-0.9%	1.8	-17%
Cc1ccc(C(=O)NC(C)C(c2cccs2)N2CCOCC2)cc1C (configuration not stated)
    -1.9%	-2.9	x	x	-0.9%	x	-240%[inhibitor]
COc1ccc(NC(=O)Nc2cc(C)ccc2OC)cc1
    0.0%	-3.4	10%	-4%	-0.6%	0.7	-3%
Cc1cccc(C(=O)N2CCN(c3ccc([N+](=O)[O-])c(N4CCOCC4)c3)CC2)c1
    0.9%	-6.5	8%	-15%	0.2%	12	2%
CCNc1cc(N2CCN(S(=O)(=O)c3ccc4c(c3)CCCC4)CC2)ccc1[N+](=O)[O-]
    -0.5%	1.2	-3%	-12%	15%[38.3 µM]	2.4	-48%[inhibitor]
CCN(CCn1cccn1)C(=O)CC1C(=O)NCCN1Cc1ccc(F)c(F)c1 (configuration not stated)
    -12%	3.0	9%	10%	-2.0%	0.1	-2%[15.4 µM]
CCCn1c(=O)c2ccccc2n2c(SCC(=O)c3ccc(CC)cc3)nnc12
    0.6%	-1.4	11%	7%	5.9%	0.6	-2%

Assay outcomes: PubChem BioAssay, National Center for Advancing Translational Sciences (NCATS)
